GIV Gai3 FP – GIV-Galpha-i interaction inhibition; P08753; hit rate 0.42% among 210,000; Galpha-i3/FITC-GIV peptide fluorescence polarization, 90 min; stronger effect = lower value; scaled: aluminum fluoride 0%, vehicle 100%; percent of control (FP), % (test concentration not listed);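 active = replicate mean at 85% of control or lower, very high polarization wells dropped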;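 note: wells of about 15 µL received 100 nL stock; the first replicate is given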
Target sequence (P08753 whole entry, looked up): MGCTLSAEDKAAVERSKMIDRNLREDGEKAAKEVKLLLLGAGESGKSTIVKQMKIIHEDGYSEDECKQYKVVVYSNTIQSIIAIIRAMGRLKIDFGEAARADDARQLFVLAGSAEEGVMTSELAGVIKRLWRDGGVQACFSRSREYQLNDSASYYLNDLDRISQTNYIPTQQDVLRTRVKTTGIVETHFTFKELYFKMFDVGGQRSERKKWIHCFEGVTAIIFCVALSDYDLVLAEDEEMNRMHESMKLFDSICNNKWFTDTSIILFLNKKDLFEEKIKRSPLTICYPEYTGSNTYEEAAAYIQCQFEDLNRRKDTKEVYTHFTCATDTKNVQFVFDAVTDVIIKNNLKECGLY
Numbers without * were called inactive. This is a subset; rates above refer to the full screens.

SMILES	GIV Gai3 FP
CCCn1c(C2CCN(S(=O)(=O)c3cnn(CC)c3)C2)nc2cccnc21 (configuration not stated)	102
Cc1ccc(C2OC3(C(=O)c4ccccc4C3=O)C3C(=O)N(c4cc(Cl)ccc4Cl)C(=O)C23)cc1 (configuration not stated)	103
Cc1cccc(-c2noc(-c3cccnc3N3CCC(C(=O)NCc4ccc(F)cc4)CC3)n2)c1	106
O=C(NCc1csc(-c2cccs2)n1)[C@H]1CSCN1C(=O)CCC1CCCC1	102
Cc1ccc(OCCn2c(NC(=O)c3ccc(Cl)cc3)nc3ccccc32)cc1	113
Cc1ccc(S(=O)(=O)N2CCN(S(C)(=O)=O)C2c2ccccc2)cc1 (configuration not stated)	110
COc1ccc(N2C(=O)C3N=NN(c4ccc(F)cc4)C3C2=O)cc1 (configuration not stated)	104
CCn1nc(CC(=O)c2ccc(Br)cc2)c(=O)n2c3ccccc3nc12	104
CCOC(=O)c1c(NC(=O)C2CC2)sc2c1CCN(Cc1ccccc1)C2	98
CCC(C)Sc1c(C)cnc2c1c(=O)n(C)c(=O)n2C (configuration not stated)	101
C=CCOC(=O)COc1ccc2c3c(c(=O)oc2c1C)CCCC3	125
COc1ccc(-c2nnn(Cc3nc(N)nc(N4CCCCC4)n3)n2)cc1	109
O=C(N/N=C/c1cn(-c2ccccc2)nc1-c1ccccc1)c1cccc(Br)c1	102
O=C(CSc1nc2ccccc2c(=O)n1CC1CCC(C(=O)NCC2CCCO2)CC1)Nc1ccccc1Cl (configuration not stated)	109
Cc1cc(Cl)ccc1N1C(=O)C(N2C(=O)c3ccc([N+](=O)[O-])cc3C2=O)C1c1cccs1 (configuration not stated)	115
CCC1C(=O)N=C(SCC(=O)Nc2ccccc2C#N)NC1=O (configuration not stated)	107
CC(C)OC(=O)c1ccc2c3c(onc13)-c1ccccc1C2=O	102
CCCS(=O)(=O)N1CCCN(C2=NS(=O)(=O)C(c3ccc(C)cc3)=C2C)CC1	105
CNC(=O)c1nc(-c2ccsc2)nc2c1OCCO2	102
CCCOc1ccc(-c2noc(Cc3nc(-c4ccccc4)cs3)n2)cc1	108
COc1ccc(N2C(N)=C(C#N)C(c3cc(Br)cs3)C3=C2CC(C)(C)CC3=O)cc1 (configuration not stated)	122
Cc1ccc(-c2nc(CSCC(=O)N(C)C)no2)cc1	100
Cc1ccc(C(=O)Nc2ccc(-c3noc(-c4ccccc4F)n3)cc2)cc1[N+](=O)[O-]	108
COc1cccc(C2CC(=O)Nc3c2c(C)nn3-c2ccc3nnc(C)n3n2)c1OC (configuration not stated)	101
CCOc1c(OC)cccc1C1CC(=O)Nc2c(-c3ccccc3)csc21 (configuration not stated)	104
CCC(C)NC(=O)Cn1c(=O)n(CC(C)C)c(=O)c2nscc21 (configuration not stated)	103
CCOC(=O)C1=CN(Cc2ccc(Cl)cc2)C=C(C(=O)OCC)C1c1ccc(OC)cc1OC	102
COc1ccc(N(NC(=O)C(c2ccc(C)cc2)(c2ccc(C)cc2)c2ccc(OC)cc2)C(=O)c2ccccc2)cc1	105
COc1cccc(C2C(C(=O)Nc3ccccc3)=C(C)N=c3s/c(=C/c4cn(C)c5ccccc45)c(=O)n32)c1 (configuration not stated)	120
CCN1c2ccccc2NC2=C(C(=O)CC(C)(C)C2)C1c1ccc(C)cc1 (configuration not stated)	102
FC(F)(F)COc1nc(OCC(F)(F)F)nc(N2CCCCC2)n1	107
O=c1c2c(nc3[nH][nH]c(=S)n13)-c1ccccc1CC21CCCC1	111
O=S(=O)(NCc1cccs1)c1cccc2nsnc12	106
O=C(Cn1ncc2c(N3CCCCC3)ncnc21)N1CCC(N2CCCCC2)CC1	103
O=C(NC1CC1)c1nc(C(=O)N2CCC3(CC2)OCCO3)cs1	102
Cc1ccc(S(=O)(=O)N(CC(O)Cn2c3ccccc3c3ccccc32)c2ccc(F)cc2)cc1 (configuration not stated)	114
C=CCNc1nc(Nc2ccc(Cl)cc2)nc(N2CCCC2)n1	99
CC(C)c1cc(C2CCCN2Cc2ccncc2)no1 (configuration not stated)	106
Cc1ccc(NC(=O)N(C)CCc2noc(C(=O)NCc3ccc(Cl)cc3)n2)cc1C	101
O=C(Nc1ccc2c(c1)OCO2)Nc1nccn(-c2ccc(F)c(F)c2)c1=O	103
CCCNC(=O)c1nnn(-c2ccc(C)cc2)c1-c1cccnc1	96
O=S(=O)(c1ccc2nc(N3CCN(Cc4ccc5c(c4)OCO5)CC3)cnc2c1)N1CCCCC1	115
CC(=O)/C=C1\NC(C)(C)Cc2ccccc21	112
CCN1CCCc2cc(C(=O)NC3CCCC3)sc21	107
COc1cc(-c2nc(C=Nc3cc([N+](=O)[O-])ccc3C)c(O)o2)cc(OC)c1OC	113
CCCn1c(=S)[nH]c2cc(C(=O)N3CCC(O)(c4cccc(C(F)(F)F)c4)CC3)ccc2c1=O	103
COc1ccc(NC(=O)c2cc3n(n2)C(C(F)(F)F)CC(c2ccc(Cl)cc2)N3)cc1OC (configuration not stated)	104
Cc1ccc(-c2noc(C3CCCN3S(=O)(=O)c3cc(C)ccc3C)n2)cc1 (configuration not stated)	95
O=C(NCCc1ccccc1Cl)c1cc2cc3ccc(Cl)cc3nc2o1	107
Fc1ccc2nc(CN3CCC4(CC3)OCCO4)cn2c1	103
COCCCNC(=O)c1cccc(-c2ccc(S(=O)(=O)N3CCCC3)cc2)c1	99
COc1ccc(C2CC(C(F)(F)F)n3nc(C(=O)N4CCN(c5cccc(Cl)c5)CC4)cc3N2)cc1 (configuration not stated)	98
N#CC1=C([S-])N[C@@](O)(c2ccccc2)[C@H]([n+]2cccc3cc(Cl)ccc32)[C@H]1c1ccsc1	113
Cc1cc(C)c2c(c1)[C@H]1OCC[C@H]1C(c1cccc(O)c1)N2 (some centres not stated)	103
C=CCN1C(=O)/C(=c2\sc3n(c2=O)C(c2ccc(F)cc2)C(C(=O)OCC)=C(C)N=3)c2ccccc21 (configuration not stated)	118
CCOc1c(OC)cccc1C1Nc2ccc(Cl)cc2[C@H]2OCCC[C@@H]12 (some centres not stated)	102
Nc1c(C(=O)c2ccc(Br)cc2)sc2nc(-c3cccnc3)ccc12	104
O=C(Nc1ccc(Cl)cc1)N1CCN(Cc2cc(=O)n3nc(-c4ccccc4)sc3n2)CC1	93
Cc1ccnc(NC(=O)c2nc(-n3cnnc3)ccc2Br)c1	105
CC1(CNS(=O)(=O)c2ccc(F)c(Cl)c2)CCOCC1	102
Remaining list, next part.
SMILES	GIV Gai3 FP
COc1ccccc1CNC(=O)CSc1nc2ccccc2n1S(=O)(=O)c1ccccc1	113
CCOC(=O)c1ccccc1C(=O)N(NC(=O)C(O)(c1ccc(Cl)cc1)c1ccc(Cl)cc1)c1ccccc1	107
O=S(=O)(c1ccc(C2CCCCC2)cc1)N1CCCN(c2nc3cccnc3s2)CC1	101
O=C(NCCCn1ccnc1)c1cc2nc(-c3ccc([N+](=O)[O-])cc3)cc(C(F)(F)F)n2n1	103
CC(C)NC(=O)Cn1c(=O)c(=O)n(Cc2ccncc2)c2ncccc21	101
CCOc1ccc(CCNS(=O)(=O)c2cccc3nsnc23)cc1OCC	102
Cc1cccc(N2C(=O)C3C(c4ccccc4)CCC(c4ccccc4)C3C2=O)c1C (configuration not stated)	112
Cc1cccc(-c2cnc(Nc3cccc(C(=O)NC4CCCc5ccccc54)c3)nc2)c1 (configuration not stated)	101
O=S(=O)(NC1c2cccc3cccc(c23)C1N1CCN(CCO)CC1)c1ccc(Cl)cc1 (configuration not stated)	106
CCOc1ccc(-c2nc(Cn3nnc(C(=O)NCc4ccc(OC)c(OC)c4)c3N)c(C)o2)cc1	94
CCOC(=O)CSc1nc2ccccc2n1C(=O)OC	104
Cc1ccc(N2C(=O)CC(c3ccccc3)C3=C2CC(C)(C)CC3=O)cc1 (configuration not stated)	109
CCOc1ccc(NC(=O)Cn2c3ccccc3n3c(=O)cc(-c4ccccc4)nc23)cc1	105
O=C(O)/C=C/C(=O)N1CCCc2ccccc21	117
COc1ccc(C(=O)N2CCc3ccc(CNC(=O)c4cccc(Cl)c4)cc32)cc1	102
COC(=O)CN1C(=O)C2(C(C#N)=C(N)Oc3n[nH]c(-c4ccc(C)cc4)c32)c2ccccc21 (configuration not stated)	98
COc1ccc(/C=c2\sc3nc(-c4ccccc4)c(-c4ccccc4)n3c2=O)cc1OC	106
Cc1ccc(C(=O)CSc2nn3c(=O)c(C)nnc3s2)cc1C	100
COCCNS(=O)(=O)c1ccc2c(c1)N(Cc1noc(C)n1)C(=O)CO2	108
O=C(CCc1nc(-c2ccc(S(=O)(=O)N3CCOCC3)cc2)no1)NC1CCCC1	105
CC(=O)NCC1(c2ccccc2)CCOCC1	118
FC(F)(F)COc1nc(N2CCOCC2)nc(N2CCN(Cc3ccccc3)CC2)n1	108
Cc1cc(SCC(=O)N2CCN(c3ccccc3)CC2)nc(-c2ccc(F)cc2)n1	107
CCn1c(N2CCCC(C(=O)Nc3ccc(OC)c(OC)c3)C2)cc(=O)n(C)c1=O (configuration not stated)	104
CN(C(=O)CSc1nnc2c3ccccc3nc(-c3ccccc3)n12)c1ccc(F)cc1	97
CCOC(=O)Cc1csc(NC(=O)c2c(O)c3c(n(CC(C)C)c2=O)CCCC3)n1	118
COc1ccc2oc(=O)c(-c3nc(-c4ccc(Br)cc4)cs3)cc2c1	108
O=C(NCc1ccc(F)cc1)C1CCCN(C(=O)C2Sc3ccccc3NC2=O)C1 (configuration not stated)	98
CCOC(=O)C1=C(C)NC(=O)NC1c1ccc(OCc2ccc(Cl)cc2Cl)c(OC)c1 (configuration not stated)	110
NC(=O)C1CCCN(Cc2cccs2)C1 (configuration not stated)	103

2 entries picked at random from those above:
SMILES	GIV Gai3 FP
C=CCN1C(=O)/C(=c2\sc3n(c2=O)C(c2ccc(F)cc2)C(C(=O)OCC)=C(C)N=3)c2ccccc21 (configuration not stated)	118
Cc1ccc(C(=O)Nc2ccc(-c3noc(-c4ccccc4F)n3)cc2)cc1[N+](=O)[O-]	108

Carrying on.
SMILES	GIV Gai3 FP
CC(C)N1CCN(S(=O)(=O)c2ccc(-c3nnc(C4CCC4)o3)o2)CC1	102
COc1ccc(Cl)cc1N(C)S(=O)(=O)c1ccc2[nH]cc(C(=O)NCCC3=CCCCC3)c(=O)c2c1	116
CCc1nc(CC)n2c(=O)n(C)nc2c1C	106
CCN(CC)c1nc(C)nc2sc(C(=O)Nc3cc(C)on3)c(C)c12	106
Cc1cc(N)nn1C(=O)CSc1nc(NCC2CCCO2)c2ccccc2n1 (configuration not stated)	108
Cc1ccc(-c2noc(Cc3nc(-c4cccc(Cl)c4)cs3)n2)cc1	127
COc1cc(C2Nc3ccc4ccccc4c3C3=C2C(=O)CC(C)(C)C3)ccc1OCC#N (configuration not stated)	104
COC(=O)C1=CN(Cc2ccc(OC)c(OC)c2)C=C(C(=O)OC)C1c1cccc(OCc2ccccc2)c1	105
Cc1ccc(S(=O)(=O)N2CCCC2c2cc(C)on2)cc1 (configuration not stated)	94
COc1ccc(-c2[nH]ncc2CN2CCCC2c2cc(C)on2)cc1OC (configuration not stated)	111
CCCCCCN1C(=O)C(=O)/C(=C(/O)c2ccc(C)cc2)C1c1ccc(N(C)C)cc1 (configuration not stated)	107
COc1ccc(N2C3=C(C(=O)CC(C)(C)C3)C(c3ccccc3)C3=C2c2ccccc2C3=O)cc1 (configuration not stated)	108
O=[N+]([O-])c1ccc(-c2ccc(-c3[nH]c(-c4cccc(O)c4)nc3-c3ccccc3)cc2)cc1	109
COc1ccc(NC(=O)c2cc3nc(-c4ccc(OC)c(OC)c4)cc(C(F)(F)F)n3n2)cc1	123
COc1ccc(CN2CCN(CC(O)Cn3c4ccccc4c4ccccc43)CC2)cc1 (configuration not stated)	108

15 of the compounds above, bar-delimited.
Compound | GIV Gai3 FP
O=C(NCc1ccc(F)cc1)C1CCCN(C(=O)C2Sc3ccccc3NC2=O)C1 (configuration not stated) | 98
CCOC(=O)C1=C(C)NC(=O)NC1c1ccc(OCc2ccc(Cl)cc2Cl)c(OC)c1 (configuration not stated) | 110
NC(=O)C1CCCN(Cc2cccs2)C1 (configuration not stated) | 103
CC(C)N1CCN(S(=O)(=O)c2ccc(-c3nnc(C4CCC4)o3)o2)CC1 | 102
COc1ccc(Cl)cc1N(C)S(=O)(=O)c1ccc2[nH]cc(C(=O)NCCC3=CCCCC3)c(=O)c2c1 | 116
CCc1nc(CC)n2c(=O)n(C)nc2c1C | 106
CCN(CC)c1nc(C)nc2sc(C(=O)Nc3cc(C)on3)c(C)c12 | 106
Cc1cc(N)nn1C(=O)CSc1nc(NCC2CCCO2)c2ccccc2n1 (configuration not stated) | 108
Cc1ccc(-c2noc(Cc3nc(-c4cccc(Cl)c4)cs3)n2)cc1 | 127
COc1cc(C2Nc3ccc4ccccc4c3C3=C2C(=O)CC(C)(C)C3)ccc1OCC#N (configuration not stated) | 104
COC(=O)C1=CN(Cc2ccc(OC)c(OC)c2)C=C(C(=O)OC)C1c1cccc(OCc2ccccc2)c1 | 105
Cc1ccc(S(=O)(=O)N2CCCC2c2cc(C)on2)cc1 (configuration not stated) | 94
COc1ccc(-c2[nH]ncc2CN2CCCC2c2cc(C)on2)cc1OC (configuration not stated) | 111
CCCCCCN1C(=O)C(=O)/C(=C(/O)c2ccc(C)cc2)C1c1ccc(N(C)C)cc1 (configuration not stated) | 107
COc1ccc(N2C3=C(C(=O)CC(C)(C)C3)C(c3ccccc3)C3=C2c2ccccc2C3=O)cc1 (configuration not stated) | 108

(next part)
SMILES	GIV Gai3 FP
COc1ccc(Nc2nc(N3CCOCC3)nc(C)c2[N+](=O)[O-])cc1	111
COc1cc(NC(=O)c2sc3nc(C)nc(N4CCC(C)CC4)c3c2C)cc(OC)c1OC	117
CCS(=O)(=O)c1nc2ccc(NS(=O)(=O)c3cc(Cl)ccc3OC)cc2s1	103
O=C1C=C(c2cccs2)C[C@H](c2ccccc2)[C@H]1n1cnc([N+](=O)[O-])n1	108
COc1ccc(-c2nc(-c3ccc(NC(=O)c4ccc(C)c([N+](=O)[O-])c4)cc3)no2)cc1OC	109
CCCCCCCOc1ccc(C(=O)Oc2ccc(C(C)=O)cc2)cc1	115
Cc1ccc(C(=O)c2nn(-c3ccccc3)c3nc4ccccc4nc23)cc1	104
CCCc1cc(C2CCCN2Cc2ccccc2OCC)no1 (configuration not stated)	102
Cc1ccc(C(=O)N(C)CCc2noc(C(=O)NCc3ccccc3)n2)cc1	101

Bioassay records as filed in PubChem.
